# Screening data as filed in PubChem BioAssay.
# PMP22 txn prim = Cell-based coincidence reporter assay to measure PMP22 gene transcription in S16 Pmp22-F2sN cells - Primary screen | AID 1508649, 2021 | S16 Pmp22-F2sN Schwann cells (luciferase reporters placed in the Pmp22 gene), FLuc/NLuc coincidence luminescence, 24 h | Potency, µM (highest dose often 57.5 µM), for inactives: at the highest dose activity change, negative = inhibition, hits mostly inhibitors | 43,000 compounds, 2% hits; active = clear falling dose curves in both reporters; inconclusive = both reporters move, but less clearly or upward; inactive = either reporter flat; the % is the NLuc reporter signal; note: % is set by controls: 0 for no effect and ±100 for the full control effect; some results filed as inactive show a strong effect at the top dose
#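 S16 Schwann cells carrying FLuc/NLuc coincidence reporter in the Pmp22 3' UTR treated with compound 24 h at 37C; FLuc then NLuc luminescence read sequentially by dual-luciferase reagents.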
# HTT prom inh = Primary qHTS for Identification of Small Molecule Inhibitors of Huntingtin Promoter Activity; 48,000 compounds, 0.93% hits; HEK293 HTT promoter firefly luciferase reporter (activity 0% = vehicle and -100% = no light), 24 h; Potency, µM (series often up to 57.5 µM), inactives show at the highest dose activity change, negative = inhibition, most hits filed as inhibitors; active = well fitted inhibition curve with a large enough effect; inconclusive = small, poorly fitted or top-dose-only effect; inactive = no such curve, though single readings can be large or run the other way; note: nearly all actives have a fitted effect of over 50% in size
#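 Quantitative HTS used concentration series of up to 57.5 uM final on HEK293 luciferase reporter cells, 24 h at 37 degrees C. Readout was Dual-Glo firefly luminescence.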
# * hit, by the source's call; ? = inconclusive; . = not tested or not shown; [ ] = dose if it differs, or a comment. Potency is the fitted concentration of half-maximal effect. Random draw from the library, and some 2.6% of all compounds hit somewhere here.
molecule	PMP22 txn prim	HTT prom inh
Cc1ccccc1OCC(=O)Nc1ccc(OCc2cc(=O)n3ccccc3n2)cc1	0%	11%
COc1cc(NS(=O)(=O)c2ccc(NC(=O)c3ccc(C(C)=O)cc3)cc2)nc(OC)n1	?	-3%
CCCCN1CC(c2nc3ccccc3n2CCCCOc2cccc(C)c2C)CC1=O (centres undefined)	?	?
Cc1nc2cccnc2n1-c1cccc(C(=O)NCCc2ccc(S(N)(=O)=O)cc2)c1	-9%	1%
COc1ccc(C2N=C(N)Nc3nc4ccccc4n32)c(OC)c1OC (centres undefined)	-4%	4%
CCC1CN(C(=O)Nc2ccc(C)c(F)c2)c2ccccc2S1 (centres undefined)	-17%	35%
COC(=O)c1ccc(CSc2nc3c([nH]c4ccccc43)c(=O)n2-c2cc(C)cc(C)c2)o1	?	-24%
Cc1ccc2c(c1)N(C(=O)CCC(=O)NCc1cccc(F)c1)CC(C)O2 (centres undefined)	-1%	-31%
CCNc1ccc(-c2nc(-c3ccccn3)no2)cc1[N+](=O)[O-]	-11%	75%[activator]
O=C1CCCC(=O)C1C(=O)c1ccc(C(F)(F)F)cc1[N+](=O)[O-]	.	-9%
CCN(CC)c1ccc(NC(=O)Cn2c3ncccc3c(=O)n2-c2ccccc2)c(C)c1	-9%	-6%
COc1ccccc1NC(=O)c1cc(C2CC2)nc2c1c(C)nn2-c1ccc(C)cc1	-19%	-10%
CCCc1cc(N2CCN(c3ccccc3F)CC2)n2cnnc2n1	?	?
COc1ccc(-c2nn(-c3ccccc3)cc2C(=O)Nc2ccccc2OC)cc1	-29%	?
CCOc1ccc(C(=O)Nc2c(C(=O)c3ccc(OC)cc3)oc3ccccc23)cc1	1%	-1%
CCCC(=O)N1CC(=O)Nc2ccc(Cl)cc2C1c1ccccc1 (centres undefined)	0%	-25%
CC(C)OCCCn1c(SCC(=O)c2ccccc2)nc2c(sc3ccccc32)c1=O	15%	-22%
CCC(=O)N1c2ccccc2CC1C(=O)NCCN1CCN(c2cccc(C)c2C)CC1 (centres undefined)	-27%	-15%
Cc1cccc(C(C)C)c1NC(=O)Cn1c(=O)oc2cc(S(=O)(=O)N3CCCC3)ccc21	-22%	-43%
CC1CCN(C(=O)Cn2ncc3c4ccccc4n(Cc4ccc(Cl)cc4)c3c2=O)CC1	-15%	-12%
COc1cccc(CNC(=O)CN(C)S(=O)(=O)c2ccc3[nH]c4c(c3c2)CCCC4)c1	-25%	-19%
Cc1ccccc1OCC(=O)Nc1ccccc1C(=O)OCc1cc(=O)n2nc(C3CC3)sc2n1	2.5µM*	-29%
O=C(NCC(c1cccnc1)N1CCN(Cc2ccccc2)CC1)C(=O)Nc1ccc(F)cc1 (centres undefined)	-24%	3%
C/C(=C(\CCOP(=O)(O)O)SC(=O)c1ccccc1)N(C=O)Cc1cnc(C)nc1N	.	-2%[6.01 µM]
CCc1nnc(SCc2nc(-c3ccccc3Cl)oc2C)c2cc3sc(C)cc3n12	-5%	-2%
Clc1ccccc1-c1nc(-c2ccncc2)no1	.	30%[activator]
CCOC(=O)c1[nH]c(C)c(CCC(=O)NC(C)c2ccccc2)c1C (centres undefined)	7%	2%
COc1ccc(C(=O)NCc2ccc3c(c2)CCN3C(=O)c2cccc(C)c2)cc1OC	-7%	-14%
O=C(Nc1ccc2nc(SCCOc3ccccc3Cl)sc2c1)c1ccc2c(c1)OCO2	-10%	-34%
Cc1ccc(/C=C/c2onc(C)c2S(=O)(=O)N2CCC(C(=O)NCc3ccc(Cl)cc3)CC2)cc1	?	-5%
Cc1c(Cl)cccc1-n1ncc(C(=O)NC2CCCC2)c1C1CCN(C(=O)OC(C)(C)C)CC1	?	-19%
CC(C)c1ccccc1NC(=O)C(Cc1c[nH]c2ccccc12)NC(=O)OC(C)(C)C (centres undefined)	-5%	?
CCOc1ccccc1NC(=O)c1cc2c(=O)oc3ccccc3c2s1	-5%	7%
CCOc1ccc(NC(=O)c2cc(S(=O)(=O)N3CCCC3)c[nH]2)cc1	-18%	?
O=C(Nc1cccc(C(F)(F)F)c1)C1CCCN1S(=O)(=O)c1cccc2nsnc12 (centres undefined)	?	?
Cc1nn(S(=O)(=O)c2ccc(F)cc2)c(C)c1S(=O)(=O)N1CCCCC1	4%	-8%
COc1cc(C2c3c(-c4ccccc4O)n[nH]c3C(=O)N2Cc2ccco2)ccc1OCC(C)C (centres undefined)	?	?
CCC(=O)N1CCc2cc(Br)cc(S(=O)(=O)CCC(=O)NCc3ccccc3)c21	9%	-11%
Cc1c2cnn(-c3ccccc3)c(=O)c2c(C)n1CC(=O)N1CCN(c2cccc(Cl)c2)CC1	?	-11%
O=C(NCc1ccccc1)c1ccc2nc(CCc3ccccc3)oc2c1	-31%	43%[activator]
COc1ccc(OC)c(NC(=O)c2ccc3nc(C(C)C)oc3c2)c1	6%	-11%
COc1ccccc1Cn1ccn(Cc2ccc(C)cc2)c(=O)c1=O	-15%	-15%
COc1cccc(CC(=O)NCc2ccc3c(c2)CCN3C(C)=O)c1	-6%	0%
CCCCC(=O)Nc1cccc(OCc2cc(=O)n3ccccc3n2)c1	-7%	49%[activator]
O=C(NCc1ccccc1)c1ccc2c(c1)N(Cc1ccc(F)cc1)CCS2	?	?
COc1ccc(C2=NS(=O)(=O)N(C)C(C(=O)NC(C)c3ccccc3)=C2)cc1OC (centres undefined)	?	-14%
COc1cccc(-c2cc(C(F)(F)F)n3nc(C)c(-c4ccccc4)c3n2)c1	-24%	-11%
Cc1c(Cl)cccc1NC(=O)c1cnc2sc(N3CCCC3)nn2c1=O	-2%	4%
COc1ccc(Nc2cc(C(=O)NCc3ccccc3)c3ccccc3n2)cc1	-4%	-4%
COc1cccc(C(C(=O)NCc2ccccc2)N(C(=O)Cn2nnc3ccccc32)c2cccc(C(C)=O)c2)c1 (centres undefined)	?	-8%
COc1ccc(-c2nnc(SCC(=O)N3CCc4ccccc43)o2)cc1OC	4%	-7%
CCOc1ccc(CCNC(=O)CCc2c(C)nc3c(c(C)nn3-c3ccccc3)c2C)cc1OCC	4%	-22%
CC(C)CC(NC(=O)C1CCCCC1)C(=O)Nc1cccc(C(F)(F)F)c1 (centres undefined)	-8%	-12%
Cc1cccn2cc(-c3cccc(NS(=O)(=O)c4ccc(Cl)c(Cl)c4)c3)nc12	1%	-8%
CCOc1ccccc1NC1(c2ccccc2)C(=O)c2ccccc2C1=O	41%	-14%
Cc1ccc2c(=O)cc(C(=O)N(Cc3ccc(N(C)C)cc3)C3CCS(=O)(=O)C3)oc2c1 (centres undefined)	-31%	24%
O=C(CCn1c(=O)c2cccn2c2cccnc21)NCc1cccc(Br)c1	-15%	2%
CCOC(=O)c1ccc(NC(=O)CSc2cc(=O)n(CC)c3ccccc23)cc1	-23%	-8%
COc1ccc(CCN2CC(C(=O)NCCc3ccc(C)cc3)CC2=O)cc1OC (centres undefined)	0%	-28%
COc1ccc(N2CCN(C(=O)c3ccc(C)c(NC(=O)c4nsc5ccccc45)c3)CC2)cc1	-4%	15%

# (listing goes on)
molecule	PMP22 txn prim	HTT prom inh
Cc1ccc(CNS(=O)(=O)c2cc3c(cc2C)NC(=O)CO3)cc1	-28%	?
CCOc1ccc(N(CC)C(=O)CSc2n[nH]c(-c3ccccc3)n2)cc1	-4%	?
CN(C)c1ccc(C(=O)Nc2cccc(-c3nc4cccnc4s3)c2)cc1	?	0%
COc1cc(NC(=O)CSc2nccn2C)cc(OC)c1OC	16%	-26%
O=C(COc1ccccc1)Nc1nnc(SCc2cc(=O)c3ccccc3[nH]2)s1	-1%	?
CC(C(=O)Nc1ccccc1C(F)(F)F)n1nc(-c2ccccc2)c2c(c1=O)CCCC2 (centres undefined)	8%	-29%
CCCc1cc(N2CCN(c3ccccc3)CC2)n2cnnc2n1	?	?
COC(=O)c1ccc(C(=O)OC)c(NC(=O)c2c(-c3ccccc3)noc2C)c1	-23%	-23%
COc1ccccc1CNC(=O)CSc1nc2nc(C)c(Cc3ccccc3C)c(C)n2n1	-11%	?
COCCNC(=O)c1cccc(Nc2nc3ccccc3n3nnnc23)c1	11µM*	-17%
CCOc1ccccc1NC(=O)N(Cc1ccc(C)o1)C1CCN(C(C)=O)CC1	-8%	-19%
CCc1ccc(NC(=O)C2CCN(S(=O)(=O)c3c(C)noc3C)CC2)cc1	-9%	?

# Some of the entries so far, with two lines to a compound:
# Values in the order: PMP22 txn prim	HTT prom inh
- Cc1ccc(CNS(=O)(=O)c2cc3c(cc2C)NC(=O)CO3)cc1
    -28%	?
- CCOc1ccc(N(CC)C(=O)CSc2n[nH]c(-c3ccccc3)n2)cc1
    -4%	?
- CN(C)c1ccc(C(=O)Nc2cccc(-c3nc4cccnc4s3)c2)cc1
    ?	0%
- COc1cc(NC(=O)CSc2nccn2C)cc(OC)c1OC
    16%	-26%
- O=C(COc1ccccc1)Nc1nnc(SCc2cc(=O)c3ccccc3[nH]2)s1
    -1%	?
- CC(C(=O)Nc1ccccc1C(F)(F)F)n1nc(-c2ccccc2)c2c(c1=O)CCCC2 (centres undefined)
    8%	-29%
- CCCc1cc(N2CCN(c3ccccc3)CC2)n2cnnc2n1
    ?	?
- COC(=O)c1ccc(C(=O)OC)c(NC(=O)c2c(-c3ccccc3)noc2C)c1
    -23%	-23%
- COc1ccccc1CNC(=O)CSc1nc2nc(C)c(Cc3ccccc3C)c(C)n2n1
    -11%	?
- COCCNC(=O)c1cccc(Nc2nc3ccccc3n3nnnc23)c1
    11µM*	-17%
- CCOc1ccccc1NC(=O)N(Cc1ccc(C)o1)C1CCN(C(C)=O)CC1
    -8%	-19%
- CCc1ccc(NC(=O)C2CCN(S(=O)(=O)c3c(C)noc3C)CC2)cc1
    -9%	?

# Next section.
molecule	PMP22 txn prim	HTT prom inh
Cc1ccc(-c2nn(-c3cccc([N+](=O)[O-])c3)c3c2cnc2ccc(F)cc23)cc1	?	0%
CC(C)CCn1c(SCc2ccc(F)cc2Cl)nc2ccsc2c1=O	13%	-5%
CCOc1ccccc1Nc1sc(C(=O)c2ccc(Cl)cc2)c(N)c1S(=O)(=O)c1ccccc1	-8%	-18%
COc1ccc(Nc2ncnc3c2cnn3-c2ccc(C)cc2)cc1Cl	0%	?
CCc1ccc(C(c2ccccc2)c2c(C)[nH]c3ccccc23)s1 (centres undefined)	?	-25%
COc1ccc(NC(=O)N2CCc3c(sc4c3CCCC4)C2c2ccc(F)cc2)cc1 (centres undefined)	15µM*	?
CCCCN(CCCC)S(=O)(=O)c1ccc2oc(C(=O)NCc3ccc(C)cc3)c(C)c2c1	-15%	?
COc1ccc2cc(CNc3ccc(C)cc3)c(=O)n(CC(=O)Nc3cccc(Cl)c3C)c2c1	?	-29%
Cc1ccc(CCNC(=O)CN(c2ccc(C(C)C)cc2)S(=O)(=O)c2c(C)nn(C)c2C)cc1	0%	11%
CCOc1cccc(C2Nc3ccccc3-c3cc(C)nn32)c1O (centres undefined)	-5%	-18%[11.5 µM]
CC(=O)c1ccc(NS(=O)(=O)c2ccc(-c3cnc(C4CC4)o3)cc2)cc1	-3%	?
Cc1ccc(C)c(N(C)C(=O)C2CCN(c3ncnc4c3nc3n4CCCCC3)CC2)c1	?	-21%
CO[C@@]12[C@H](COC(N)=O)C3=C(C(=O)C(C)=C(N)C3=O)N1C[C@@H]1N[C@@H]12	.	?
COCCCNC(=O)c1oc2c(c1C)-c1nn(Cc3cccc(Cl)c3)cc1CC2	?	?
CCn1cnc2c(=O)oc3ccc(S(=O)(=O)N4CCN(c5cc(C)ccc5C)CC4)cc3c21	-9%	-17%
COc1ccc(-c2noc(CN(C)S(=O)(=O)c3c(C)cc(C)cc3C)n2)cc1OC	0%	-4%
CCOC(=O)N1CCc2c(sc(NCc3cc(OC)ccc3OC)c2C(=O)Nc2cc(OC)ccc2OC)C1	?	?
Cc1ccc(NC(=O)C2CCCN2S(=O)(=O)c2cccc3cccnc23)c(C)c1 (centres undefined)	-9%	?
COc1ccc(C)cc1NC(=O)C(=O)NCC(c1cccnc1)N1CCc2ccccc21 (centres undefined)	?	?
CCOC(=O)c1ccccc1NC(=O)c1cc2c(s1)-c1ccccc1SC2	?	?
O=C(C1CCC(Cn2c(=O)c3sccc3n(Cc3cccc(F)c3)c2=O)CC1)N1CCCCC1 (centres undefined)	?	?
O=c1c2sc3ccccc3c2n(Cc2cccc(Cl)c2)c(=O)n1Cc1ccco1	-10%	-25%
Cc1cccc2c1N(Cc1ccccc1OCCC(C)C)C(=O)C2=O	?	?
CCOC(=O)N1CCc2c(sc3c2c(=O)n(Cc2ccccc2)c(=O)n3Cc2ccccc2Cl)C1	-5%	-8%
